Source: PubChem BioAssay (Broad Institute)
Ecoli rRNA inh = selective bacterial rRNA inhibition in E. coli | E. coli WT GFP vs humanized-ribosome RFP mutants, fluorescence, 24 h; active compounds read low; DMSO median 0, no signal -100 | GFP signal change (wild-type ribosome), % (test concentration not listed) | 350,000 tested, 1.6% active | AID 720706;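 active = significant combined selectivity score with lowered wild-type GFP, culture density cut under 30%, mutant RFP and density less affected; inactive = any of these conditions unmet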; note: one replicate is shown; some compounds called inactive have numbers as strong as hits
FGF22 binding = binders of recombinant human FGF22 by thermal shift | SYPRO orange fluorescence; percent of sucrose octasulfate shift, DMSO zero | calls only at 9.99 µM | 340,000 tested, 1.5% active;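 active = melting point raised past a set limit in the mean and every replicate; three in four hits are not shown here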
Target sequence (Q9HCT0 whole entry, looked up): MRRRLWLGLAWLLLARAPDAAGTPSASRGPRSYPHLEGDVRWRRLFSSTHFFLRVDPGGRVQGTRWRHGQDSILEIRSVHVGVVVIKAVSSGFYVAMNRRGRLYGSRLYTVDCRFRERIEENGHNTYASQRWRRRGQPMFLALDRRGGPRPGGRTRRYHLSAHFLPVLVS
AF4-AF9 inh = blocks AF4 peptide binding to human AF9. P42568. AlphaScreen, biotin-AF4 peptide binding to FLAG-AF9. inhibition, % at 10 µM. 350,000 tested, 0.47% active. AID 651704;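 active = every replicate reaching a set inhibition limit, whatever the replicate mean, cut at about 25% in these data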;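 note: 0% = plate neutral control median and 100% = total signal loss; the record names both 10 and 1 µM as test concentration; the first replicate is given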
Target sequence (P42568 whole entry, looked up): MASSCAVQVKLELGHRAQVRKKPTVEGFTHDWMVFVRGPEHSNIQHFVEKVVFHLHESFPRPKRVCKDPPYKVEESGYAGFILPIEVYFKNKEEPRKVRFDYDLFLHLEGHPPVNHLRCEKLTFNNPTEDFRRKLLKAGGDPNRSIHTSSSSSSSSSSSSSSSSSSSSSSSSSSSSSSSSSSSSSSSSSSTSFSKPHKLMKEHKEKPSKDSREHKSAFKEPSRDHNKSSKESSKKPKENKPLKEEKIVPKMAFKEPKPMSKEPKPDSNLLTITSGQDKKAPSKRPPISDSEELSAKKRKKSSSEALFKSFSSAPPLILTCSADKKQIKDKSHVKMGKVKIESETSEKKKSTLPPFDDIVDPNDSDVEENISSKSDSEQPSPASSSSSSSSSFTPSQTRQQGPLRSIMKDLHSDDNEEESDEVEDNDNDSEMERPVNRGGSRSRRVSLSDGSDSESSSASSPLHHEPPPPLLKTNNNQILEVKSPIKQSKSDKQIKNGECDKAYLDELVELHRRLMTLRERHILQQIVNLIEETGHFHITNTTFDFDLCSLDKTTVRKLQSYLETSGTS
Ecoli rRNA inh OD600 = second read-out of Ecoli rRNA inh, no call of its own (marks repeat the call); OD600 change, %; measured here: OD600 growth;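 optical density of the mix in the first replicate; 0 = DMSO median and -100 = no signal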
Ecoli rRNA inh RFP = recorded beside Ecoli rRNA inh, whose call it bears; RFP signal change, %; measured here: RFP humanized mutant strains;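 first replicate; 0 = DMSO median and -100 = no signal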
* hit, by the source's call; i = inactive; + = active, no number; & = joins results of further samples. This is a subset (hit frequency here may not be typical).

no.	canonical_smiles	Ecoli rRNA inh	Ecoli rRNA inh OD600	Ecoli rRNA inh RFP	FGF22 binding	AF4-AF9 inh
1	C[C@H](CO)N1C[C@H](C)[C@H](CN(C)Cc2ccc3c(c2)OCO3)Oc2c(NS(=O)(=O)c3ccc(Cl)cc3)cccc2C1=O	-2	-7	3.0	i	3.1
2	Cc1ccc(S(=O)(=O)Nc2ccc3c(c2)CC(=O)N([C@@H](C)CO)C[C@H](C)[C@@H](CN(C)S(=O)(=O)c2c(C)noc2C)O3)cc1	2	6	-1.3	i	-0.8
3	CCCCn1nnnc1C(c1cc2ccccc2o1)N(CCC#N)Cc1ccccc1 (centres undefined)	1	10	-2.9	i	-1.8
4	C[C@@H]1CN([C@H](C)CO)C(=O)Cc2cc(NC(=O)C3CCCCC3)ccc2O[C@@H]1CN(C)C	4	17	-1.2	i	-2.7
5	CO[C@H]1CN(C)C(=O)c2cc(NC(=O)Nc3ccccc3)ccc2OC[C@H](C)NC[C@@H]1C	-2	-1	-0.3	i	1.6
6	O=C(C[C@@H]1CC[C@@H]2[C@H](COC[C@H](O)CN2C(=O)Nc2ccc(Cl)cc2)O1)NCC1CC1	-39	-45	-4.7	i	-0.1
7	CC(=O)Nc1cc(-c2cccc(C(=O)NCCN(C)C)c2)cn2c(-c3ccc(S(C)(=O)=O)cc3)cnc12	13	11	0.5	i	-0.5
8	COc1ccccc1C(=O)NNC(=O)c1cc2ccccc2cc1O	-16	-34	-11	i	-0.3
9	COc1ccc(CCN2CC(C(=O)N(C)Cc3ccccn3)CCC2=O)cc1 (centres undefined)	14	23	0.0	i	-1.7
10	Cc1noc(C)c1NC(=O)Nc1ccc2c(c1)C(=O)N([C@H](C)CO)C[C@H](C)[C@@H](CN(C)S(=O)(=O)c1c(C)noc1C)OCCCC[C@H](C)O2	5	13	3.6	i	-6.2
11	COc1ccc(NC(=O)N(C)C[C@H]2OCCCC[C@H](C)Oc3ccc(NC(=O)Cc4ccccc4)cc3C(=O)N([C@H](C)CO)C[C@@H]2C)cc1	-5	-7	0.3	i	-1.5
12	C[C@@H](NS(=O)(=O)c1cc(Cl)ccc1F)[C@H](O)c1ccccc1	1	-2	3.9	i	-2.0
13	Cc1ccc([C@@H]2C[C@H]3[C@@H](CN2S(=O)(=O)c2ccc(C)cc2)C(=O)C[C@@H](c2cccc(Cl)c2)N3S(=O)(=O)c2ccc(C)cc2)cc1	12	13	1.2	i	1.5
14	CC(C)CN1CCC1(C)C(=O)Nc1cccc(C#N)c1 (centres undefined)	-4	-3	2.4	i	2.1
15	CCC(=O)N1[C@@H](CO)[C@@H](c2ccc(-c3ccccc3OC)cc2)C12CN(C(C)=O)C2	1	8	-0.8	i	-2.5

Ordered by number of heavy atoms (ascending): part of the list above
no.	canonical_smiles	Ecoli rRNA inh	Ecoli rRNA inh OD600	Ecoli rRNA inh RFP	FGF22 binding	AF4-AF9 inh
12	C[C@@H](NS(=O)(=O)c1cc(Cl)ccc1F)[C@H](O)c1ccccc1	1	-2	3.9	i	-2.0
8	COc1ccccc1C(=O)NNC(=O)c1cc2ccccc2cc1O	-16	-34	-11	i	-0.3
9	COc1ccc(CCN2CC(C(=O)N(C)Cc3ccccn3)CCC2=O)cc1 (centres undefined)	14	23	0.0	i	-1.7
15	CCC(=O)N1[C@@H](CO)[C@@H](c2ccc(-c3ccccc3OC)cc2)C12CN(C(C)=O)C2	1	8	-0.8	i	-2.5
3	CCCCn1nnnc1C(c1cc2ccccc2o1)N(CCC#N)Cc1ccccc1 (centres undefined)	1	10	-2.9	i	-1.8
4	C[C@@H]1CN([C@H](C)CO)C(=O)Cc2cc(NC(=O)C3CCCCC3)ccc2O[C@@H]1CN(C)C	4	17	-1.2	i	-2.7
7	CC(=O)Nc1cc(-c2cccc(C(=O)NCCN(C)C)c2)cn2c(-c3ccc(S(C)(=O)=O)cc3)cnc12	13	11	0.5	i	-0.5
2	Cc1ccc(S(=O)(=O)Nc2ccc3c(c2)CC(=O)N([C@@H](C)CO)C[C@H](C)[C@@H](CN(C)S(=O)(=O)c2c(C)noc2C)O3)cc1	2	6	-1.3	i	-0.8
13	Cc1ccc([C@@H]2C[C@H]3[C@@H](CN2S(=O)(=O)c2ccc(C)cc2)C(=O)C[C@@H](c2cccc(Cl)c2)N3S(=O)(=O)c2ccc(C)cc2)cc1	12	13	1.2	i	1.5
10	Cc1noc(C)c1NC(=O)Nc1ccc2c(c1)C(=O)N([C@H](C)CO)C[C@H](C)[C@@H](CN(C)S(=O)(=O)c1c(C)noc1C)OCCCC[C@H](C)O2	5	13	3.6	i	-6.2

Following part
no.	canonical_smiles	Ecoli rRNA inh	Ecoli rRNA inh OD600	Ecoli rRNA inh RFP	FGF22 binding	AF4-AF9 inh
16	C[C@@H]1CN([C@@H](C)CO)C(=O)CCCn2cc(nn2)CO[C@@H]1CN(C)Cc1ccc(-c2ccccc2)cc1	0	-4	-0.5	i	0.7
17	CC(=O)N(C)C[C@H]1Oc2cc(C#CCC(C)C)ccc2S(=O)(=O)N([C@H](C)CO)C[C@@H]1C	-2	1	1.3	i	1.6
18	C[C@@H]1CCCCO[C@H](CN(C)C(=O)C2CCCCC2)[C@@H](C)CN([C@@H](C)CO)C(=O)c2cc(NC(=O)Nc3cccc4ccccc34)ccc2O1	0	4	1.6	i	0.3
19	COc1ccc2cc(C3=CC(=O)CC(C)(C)C3=O)ccc2c1	4	0	-4.7	i	-3.2
20	COc1ccc(NC(=O)N(C)C[C@H]2Oc3c(NC(=O)CCCCCC(=O)Nc4ccccc4N)cccc3C(=O)N([C@@H](C)CO)C[C@@H]2C)cc1	2	3	-2.8	i	2.2
21	C[C@@H]1CCCCO[C@@H](CN(C)S(=O)(=O)c2cn(C)cn2)[C@H](C)CN([C@H](C)CO)C(=O)c2cc(NS(=O)(=O)c3cn(C)cn3)ccc2O1	1	12	-1.3	i	-8.1
22	C[C@H]1CN([C@@H](C)CO)C(=O)c2cccc(NC(=O)C3CCCCC3)c2O[C@H]1CN(C)Cc1ccc(C(=O)Nc2ccccc2N)cc1	4	0	1.7	i	-1.4
23	CC(C)NC(=O)Nc1ccc2c(c1)CC(=O)N([C@@H](C)CO)C[C@H](C)[C@H](CN(C)S(C)(=O)=O)O2	1	3	-2.8	i	-3.2
24	CN(C)C(=O)c1cccc(-c2ccc([C@H]3[C@@H](CO)N4CCCCN(Cc5cccnc5)C[C@H]34)cc2)c1	4	-8	-1.9	i	-1.9
25	C[C@H]1CCCCO[C@@H](CN(C)C(=O)c2ccncc2)[C@@H](C)CN([C@@H](C)CO)C(=O)c2cc(NC(=O)c3ccccc3)ccc2O1	0	8	-1.0	i	-4.4
26	CC(=O)N1CC[C@@H]2[C@@H](CO)Nc3ccc(-c4cccc(F)c4)cc3[C@@H]21	3	8	1.0	i	-2.6
27	Cc1noc(C)c1S(=O)(=O)Nc1ccc2c(c1)C(=O)N([C@@H](C)CO)C[C@@H](C)[C@H](CN(C)Cc1ccc3c(c1)OCO3)OCCCC[C@@H](C)O2	0	5	0.2	i	3.2
28	CC(=O)Nc1cccc(C(=O)NN2C(=O)NC3(CCC(C)CC3)C2=O)c1 (centres undefined)	12	21	-0.6	i	-1.7
29	CC(O)(c1ccccc1)c1nc(-c2ccc3c(c2)OCO3)cs1 (centres undefined)	-39	-57	0.8	i	-3.0
30	CO[C@H](CN(C)S(=O)(=O)c1ccc(F)cc1)[C@@H](C)CN(C(=O)Nc1ccccc1F)[C@H](C)CO	2	0	-5.0	i	-1.2

A second format for 2 compounds above.
24. CN(C)C(=O)c1cccc(-c2ccc([C@H]3[C@@H](CO)N4CCCCN(Cc5cccnc5)C[C@H]34)cc2)c1
25. C[C@H]1CCCCO[C@@H](CN(C)C(=O)c2ccncc2)[C@@H](C)CN([C@@H](C)CO)C(=O)c2cc(NC(=O)c3ccccc3)ccc2O1

assay / compound	24	25
Ecoli rRNA inh	4	0
Ecoli rRNA inh OD600	-8	8
Ecoli rRNA inh RFP	-1.9	-1.0
FGF22 binding	i	i
AF4-AF9 inh	-1.9	-4.4

Additional structures follow.
no.	canonical_smiles	Ecoli rRNA inh	Ecoli rRNA inh OD600	Ecoli rRNA inh RFP	FGF22 binding	AF4-AF9 inh
31	OC[C@H]1Nc2ccc(-c3cccc(F)c3)cc2[C@H]2[C@@H]1CCN2Cc1ccncc1	6	9	3.5	i	1.6
32	COc1ccc2c3c([nH]c2c1)[C@H](CO)N(C(C)=O)CC31CCN(C(=O)Nc2ccc(F)cc2)CC1	-4	-7	-0.6	i	-0.4
33	O=C(C[C@H]1CC[C@H]2[C@@H](COC[C@H](O)CN2C(=O)C2CC2)O1)NCc1ccccc1Cl	-3	0	0.5	i	0.6
34	C[C@@H]1CCCCO[C@H](CN(C)S(=O)(=O)c2ccc(Cl)cc2)[C@H](C)CN([C@H](C)CO)C(=O)c2cc(NS(=O)(=O)c3ccc(F)cc3)ccc2O1	1	1	0.2	i	-1.4
35	COC(=O)[C@]12C[C@H](CC(=O)NCc3cccc(C(F)(F)F)c3)C(=O)N(Cc3ccccc3)C1=C[C@H](C(C)(C)C)O[C@@H]2C	12	6	0.8	i	2.0
36	C[C@@H]1CN([C@@H](C)CO)S(=O)(=O)c2ccc(Br)cc2O[C@@H]1CN(C)C(=O)CN(C)C	5	12	1.0	i	-3.9
37	CC(C)NC(=O)Nc1cccc2c1O[C@H](CN(C)C(=O)NC(C)C)[C@@H](C)CN([C@@H](C)CO)C2=O	-2	-2	-1.3	i	-0.6
38	C[C@@H]1CN([C@H](C)CO)C(=O)Cc2cc(NC(=O)Nc3ccc(C(F)(F)F)cc3)ccc2O[C@@H]1CN(C)S(=O)(=O)c1ccc(Cl)cc1	6	7	1.2	i	-3.3
39	C[C@@H]1CCCCO[C@@H](CN(C)Cc2ccc(Cl)c(Cl)c2)[C@@H](C)CN([C@@H](C)CO)C(=O)c2cc(NC(=O)Nc3ccccc3)ccc2O1	3	11	2.8	i	2.5
40	CC(C)[C@@H](C)NC(=O)N(C)C[C@@H]1OCc2ccccc2-c2c(n(C)c3ccccc23)C(=O)N([C@@H](C)CO)C[C@H]1C	3	2	1.4	i	-2.1
41	CCOC(=O)C1CCCN(C(=O)C2(c3ccc(Cl)cc3)CCCC2)CC1 (centres undefined)	-25	-49	-7.1	i	-5.7
42	COC(=O)c1cc2c(c3c4ccccc4n(S(=O)(=O)c4ccc(OC)cc4)c13)C(=O)N(Cc1ccc(C(F)(F)F)cc1)C2	6	12	6.2	i	-8.9
43	COc1ccc(Cc2c(-c3ccc(OC)c(OC)c3)nc3cc(C)c(Br)c(C)n23)c(C)c1	2	-2	-1.7	i	0.6
44	O=C(C[C@H]1CC[C@@H](NC(=O)C2CC2)[C@H](CO)O1)NCCCN1CCOCC1	1	-4	0.0	i	-2.5
45	C[C@H](CO)N1C[C@H](C)[C@H](CN(C)S(C)(=O)=O)Oc2cc(-c3ccccc3)ccc2S1(=O)=O	-6	-19	-1.4	i	0.8
46	CCC(=O)Nc1ccc2c(c1)OC[C@@H](C)N(Cc1ccccc1)C[C@H](C)[C@H](OC)CN(C)C2=O	-6	-7	-0.7	i	-5.1
47	C[C@H](CO)N1C[C@H](C)[C@H](CN(C)C(=O)OCc2ccccc2)OCc2cnnn2CCCC1=O	14&0	9&0	0.5&-2.1	i	-2.9&1.1&-2.8
48	COc1cccc(-c2cc(CNC(=O)[C@H]3O[C@@H](n4ccc(N)nc4=O)[C@H](O)[C@@H]3O)no2)c1	11	0	3.7	i	-3.9
49	O=C(C1CC1)N1[C@H](CO)[C@H]2c3ccccc3N(S(=O)(=O)c3ccccc3)C[C@H]21	-3	4	3.4	+	1.1
50	COc1ccc(S(=O)(=O)Nc2cccc3c2O[C@H](CN(C)S(=O)(=O)c2c(C)noc2C)[C@@H](C)CN([C@H](C)CO)C3=O)cc1	-4	5	1.3	i	-5.4
51	CC(C)C[C@H]1CNC(=S)N1CC1CCN(CCCCc2ccccc2)CC1	10	12	4.8	i	6.0
52	CCN(C[C@@H]1N[C@@H](CO)[C@@H]1c1ccc(-c2cccc(C#N)c2)cc1)C(=O)COC	-1	-2	-1.1	i	2.1
53	Cc1ccccc1-c1ccc2c(c1)O[C@@H](CN(C)Cc1ccc(C(=O)O)cc1)[C@H](C)CN([C@@H](C)CO)S2(=O)=O	-6	-5	-1.7	i	-1.0
54	C[C@H](CO)N1C[C@H](C)[C@@H](CN(C)S(=O)(=O)c2ccccc2)Oc2ccc(NC(=O)CCCN(C)C)cc2CC1=O	2	2	2.2	i	0.0
